Screens (PubChem)
Cruzain noTriton = inhibitors of Trypanosoma cruzi cruzain without detergent. purified cruzain, Z-FR-AMC fluorescence, no detergent. AID 1476. actives 2.3% (n = 200,000). Potency, µM, for inactives: max response, negative = inhibition, actives largely listed as inhibitors. P25779;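 also: plate controls were enzyme without inhibitor for no effect and buffer without enzyme for full effect; nearly all actives have a fitted effect of over 40% in size; top concentration of the series not given in the record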
Target sequence (P25779 123-467 limits assumed): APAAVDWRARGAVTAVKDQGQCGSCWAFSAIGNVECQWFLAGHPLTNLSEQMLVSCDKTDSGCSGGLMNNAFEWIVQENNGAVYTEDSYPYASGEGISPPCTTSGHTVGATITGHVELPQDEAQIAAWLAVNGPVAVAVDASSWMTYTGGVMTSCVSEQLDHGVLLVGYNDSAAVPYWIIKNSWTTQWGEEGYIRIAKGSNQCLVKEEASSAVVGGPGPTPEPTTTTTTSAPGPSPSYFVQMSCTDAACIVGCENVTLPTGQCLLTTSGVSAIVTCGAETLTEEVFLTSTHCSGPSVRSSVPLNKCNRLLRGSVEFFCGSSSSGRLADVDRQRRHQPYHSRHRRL
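Purified cruzain at 1.5 nM, pre-incubated 15 min with compound at room temperature in 100 mM sodium acetate pH 5.5, 5 mM DTT, 0.00005% Triton X-100. Reaction started with 2 uM Z-FR-AMC; AMC fluorescence increase over 60 s gives rate.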
NS1 function inh = inhibitors of influenza NS1 protein function. S. cerevisiae slowed by influenza A NS1, growth recovery by OD600. Potency, µM (highest dose often 46.1 µM), for the others: at the top dose activity, positive = more growth. actives 0.4% (n = 270,000). AID 2326; active means well fitted rising curve with a large enough effect; inconclusive means small, poorly fitted or top-dose-only effect; inactive means no such curve, though single readings can be large or run the other way; also: nearly all actives have a fitted effect of over 50% in size
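A cell-based growth assay was used: compounds that relieve NS1-induced slow growth of budding yeast raise OD600. Assay medium was yeast nitrogen base with ammonium sulphate and -URA supplement, pH 6.0, with 2% galactose.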
MARV entry inh = Marburg virus entry inhibition | Marburg virus pseudotyped entry inhibition, cell reporter; control for the full effect not named in the record; about a third of the inactives were read at about 46 µM | Potency, µM (top dose mostly 37.8 µM), for the others: top-dose activity change, negative = inhibition, usual class: inhibitors | actives 1.8% (n = 300,000) | AID 540276; active = well fitted inhibition curve with a large enough effect; inconclusive = small, poorly fitted or top-dose-only effect, or effect the other way; inactive = flat fitted curve, though single readings scatter; tested in HEK293 cells; about a fifth of its hits are not listed in these tables; also: % is scaled to controls: 0 for no effect and ±100 for the full control effect; luciferase read-out
StopGo reporter = FMDV 2A StopGo reporter, luciferase signal | Potency, µM (series often up to 57.9 µM), inactives show at the top dose signal change, negative = less light | actives 1.2% (n = 410,000) | human cells with a luciferase reporter of 2A StopGo recoding; control for the full effect not named in the record | AID 1159524; active = well fitted falling curve with a large enough effect; inconclusive = small, poorly fitted or top-dose-only effect; inactive = no such curve, though single readings can be large or run the other way; tested in HEK293T cells; also: % is scaled to controls: 0 for no effect and ±100 for the full control effect; nearly all actives have a fitted effect of over 45% in size; luciferase light after 4 h
Cruzain inh Det = cruzain (T. cruzi) inhibition with detergent | Potency, µM, for the others: max response, negative = inhibition, usual class: inhibitors | P25779 | actives 0.43% (n = 200,000) | purified cruzain, Z-FR-AMC fluorescence, 0.01% Triton | AID 1478;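 also: plate controls were neutral wells for no effect and buffer without enzyme for full effect; nearly all actives have a fitted effect of over 40% in size; top concentration of the series not given in the record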
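Compounds were screened in titration against cruzain (1.5 nM) with 0.01% Triton X-100 to counter colloidal aggregation. Activity was the AMC fluorescence increase over 60 s after adding 2 uM Z-FR-AMC at pH 5.5.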
RE007 growth inh = less growth of the S. pombe RE007 Vpr strain; Potency, µM (series often up to 92.2 µM), without a hit: top-dose activity change, negative = less growth; actives 0.21% (n = 360,000); S. pombe RE007 Vpr strain, BacTiter-Glo ATP luminescence, 24 h; control for the full effect not named in the record; active = well fitted falling curve with a large enough effect; inconclusive = small, poorly fitted or top-dose-only effect; inactive = no such curve, though single readings can be large or run the other way;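 also: % is scaled to controls: 0 for no effect and ±100 for the full control effect; nearly all actives have a fitted effect of over 50% in size; the assay follows cell death caused by Vpr and the record does not say whether a fall means rescue or toxicity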
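Fission yeast strain RE007, carrying one chromosomally integrated HIV-1 vpr copy, was seeded at OD 0.01 in PMG+AL medium with 23 nL pinned compound. After 24 h at 30 °C and 99% humidity, viability was read by BacTiter-Glo luminescence.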
SARS PLpro yeast = SARS-CoV PLP inhibition in yeast | actives 0.19% (n = 330,000) | Potency, µM (highest dose often 32.9 µM), for the others: at the top dose activity, positive = growth rescue | AID 485353 | S. cerevisiae expressing SARS-CoV PLpro, growth rescue; control for the full effect not named in the record; active means well fitted rising curve with a large enough effect; inconclusive means small, poorly fitted or top-dose-only effect; inactive means no such curve, though single readings can be large or run the other way; also: 0% is about no effect; nearly all actives have a fitted effect of over 55% in size; growth read by luminescence after 48 h
Lassa entry inh = blocks Lassa virus binding to or entry into cells | Lassa virus pseudotype entry inhibition, cell reporter; control for the full effect not named in the record | Potency, µM (titrated, usually from 37.9 µM), for the others: at the highest dose activity change, negative = inhibition, hits mostly inhibitors | actives 1.2% (n = 300,000) | AID 540256; active means well fitted inhibition curve with a large enough effect; inconclusive means small, poorly fitted or top-dose-only effect, or effect the other way; inactive means flat fitted curve, though single readings scatter; tested in HEK293 cells; also: % is scaled to controls: 0 for no effect and ±100 for the full control effect; nearly all actives have a fitted effect of over 50% in size; luciferase read-out
The depositor's hits bear a star; ? = inconclusive; . = not tested or not shown; & = joins results of further samples; [ ] = another dose, or the depositor's remark. Unless noted, calls follow the shape of the dose curve; as a rule, active = well fitted curve in the direction sought with a large enough effect; inconclusive = small, poorly fitted or top-dose-only effect, or another doubt; inactive = no such curve, though single readings can be large; an effect the other way counts as inactive or inconclusive. Potency is read from the fitted curve at half-maximal effect. Random draw from the library. Share with any hit: about 4.7%.

SMILES	Cruzain noTriton	NS1 function inh	MARV entry inh	StopGo reporter	Cruzain inh Det	RE007 growth inh	SARS PLpro yeast	Lassa entry inh
Cc1csc2nc(CCNS(=O)(=O)c3ccc(F)cc3)cn12	-1.9%	.	.	-6.3%	-25.1%	.	.	-26.2%[46.1 µM]
CC(C)OC(=O)CSc1nnc(CNc2ccc(Cl)cc2)n1Cc1ccccc1	?	2.5%	-18.3%	?	-6.8%	-7.0%	-2.9%	-11.0%
Cc1cc(NC(=O)c2ccc(S(=O)(=O)Nc3ccccc3)cc2)no1	-4.7%	3.4%	-0.3%	17.2%	0.1%	22.4%	1.8%	-22.3%
Cc1cc(NC(=O)COC(=O)C2CCN(C(=O)c3ccc(Cl)cc3)CC2)no1	0.4%	-4.5%	-23.9%[46.1 µM]	-13.2%	-16.9%	-0.3%	12.4%	1.0%
CCOc1cccc(NC(=O)C2CC(=O)N(C)C(=Nc3ccc(F)cc3)S2)c1 (stereo not given)	?	.	.	-3.7%	-13.0%	.	.	-19.5%[46.1 µM]
N#Cc1ccc(CSc2nc3c(c(=O)[nH]2)CCC3)cc1	-3.1%	.	11.1%[46.1 µM]	-11.6%	-4.0%	.	.	0.3%[46.1 µM]
O=C(O)CCCNS(=O)(=O)c1ccc(NCc2ccccc2)c(C(=O)O)c1	-12.8%	2.2%	-3.3%&-3.3%	-16.4%	0.7%	-9.1%	6.5%	7.6%
COCCCNC(=O)C12CCC(C)(C(=O)C1)C2(C)C (stereo not given)	8.8%	1.8%	23.0%[46.1 µM]	-11.5%	3.0%	5.4%	0.4%	0.4%
COc1ccccc1N1CCN(CC(=O)Nc2cccc(F)c2)CC1	-2.4%	-5.3%	0.0%	-27.0%	1.6%	15.4%	1.1%	3.0%
CC1CCCCN1c1ncnc(N)c1[N+](=O)[O-] (stereo not given)	.	.	-5.2%[46.1 µM]	-17.8%	.	-13.7%	3.6%	.
C=CCc1c(NCCO)nc(C)[nH]c1=O	.	1.3%	?	-7.3%	.	3.5%	-0.8%	-16.2%
O=C(NCCN1CCOCC1)c1ccc(Cl)cc1O	.	9.3%	?	15.4%	.	5.7%	0.2%	.
Cc1nc(C(=O)N(C)C)nn1-c1cc(Cl)ccc1Cl	-2.8%	6.4%	9.6%	4.8%	-2.7%	9.8%	1.5%	-2.8%
COc1ccc(OC)c(C2NC(=O)CCC2[N+](=O)[O-])c1 (stereo not given)	.	4.6%	.	-1.0%	.	13.7%	1.4%	.
Cn1c(SCC(=O)NC2CCCCC2)nnc1-c1cccnc1	.	-6.5%	4.6%[46.1 µM]	13.5%	.	6.5%	-2.0%	?

2 entries drawn at random from those above:
SMILES	Cruzain noTriton	NS1 function inh	MARV entry inh	StopGo reporter	Cruzain inh Det	RE007 growth inh	SARS PLpro yeast	Lassa entry inh
Cc1cc(NC(=O)COC(=O)C2CCN(C(=O)c3ccc(Cl)cc3)CC2)no1	0.4%	-4.5%	-23.9%[46.1 µM]	-13.2%	-16.9%	-0.3%	12.4%	1.0%
C=CCc1c(NCCO)nc(C)[nH]c1=O	.	1.3%	?	-7.3%	.	3.5%	-0.8%	-16.2%

Returning to the listing; the 2 compounds before the break are reprinted first.
SMILES	Cruzain noTriton	NS1 function inh	MARV entry inh	StopGo reporter	Cruzain inh Det	RE007 growth inh	SARS PLpro yeast	Lassa entry inh
COc1ccc(OC)c(C2NC(=O)CCC2[N+](=O)[O-])c1 (stereo not given)	.	4.6%	.	-1.0%	.	13.7%	1.4%	.
Cn1c(SCC(=O)NC2CCCCC2)nnc1-c1cccnc1	.	-6.5%	4.6%[46.1 µM]	13.5%	.	6.5%	-2.0%	?
N#Cc1cc(C(=O)c2cc(F)ccc2O)cn(Cc2ccccc2)c1=O	.	.	?	?	.	29.8%	-1.1%	?
O=c1c(S(=O)(=O)c2ccc(Cl)cc2)cn(Cc2ccccc2F)c2ccc(F)cc12	-14.0%	2.7%	?	-2.9%	-0.4%	-0.4%	17.6%	?
O=C(COC(=O)C1CC2CCCC(C1)C2=O)Nc1ccccc1 (stereo not given)	.	.	?	-5.5%	.	4.9%	1.5%	-0.6%
Fc1ccccc1-c1nc2ncccc2o1	.	-7.1%	-4.2%[46.1 µM]	36.2%[activator]	.	-21.4%	-0.7%	?
CCOC(=O)c1c(C)[nH]c(C)c1C(=O)COC(=O)/C=C/c1cccc(Cl)c1	19.5%	-3.1%	-1.9%	-14.9%	-12.1%	15.0%	-0.5%	-25.2%
Cc1cc(C)c2c(CC(=O)Nc3c(C(=O)c4ccc(F)cc4)oc4ccccc34)coc2c1	-15.3%	.	-1.6%[46.1 µM]	-16.5%	-1.2%	.	.	-1.6%[46.1 µM]
O=C(O)c1cc(Cl)c(Cl)cc1C(=O)N1CCOCC1	4.3%	3.9%	15.8%	7.5%	5.2%	2.2%	3.8%	30.0%
N#CCC(=O)N1CCN(C(c2ccccc2)c2ccccc2)CC1	.	.	17.4%[46.1 µM]	5.1%	.	-4.2%	.	9.0%
COc1ccc(CCNC(=O)COc2ccc(-c3ccc(C#N)cc3)cc2)cc1	4.7%	6.8%	-18.6%	-20.7%	-2.8%	-15.5%	-13.5%	-12.6%
O=C(NC1CC2CCCC(C1)N2C(=O)NC1CCCCC1)c1ccc(F)cc1 (stereo not given)	0.7%	-1.7%	-15.7%	-7.5%	0.0%	-10.5%	-2.1%	-4.0%
COc1ccccc1NC(=O)C1=C(C)NC(SCC(=O)c2ccc(C)cc2)=C(C#N)C1c1ccco1 (stereo not given)	12.6µM*	9.8%	0.7%	.	-9.9%	.	-2.7%	.
CN1CCN(c2ccc([N+](=O)[O-])cc2/C=N/NC(=O)c2cccc([N+](=O)[O-])c2)CC1	-15.8%	5.8%	?	.	-6.4%	.	10.2%	2.3%
CCOc1ccc(S(=O)(=O)N2CCOCC2)cc1NC(=O)CSCC(=O)Nc1ccc(OC)cc1	.	.	-0.4%	28.3%	.	1.3%	.	8.6%
Cc1cc(C(=O)N2CCN(S(=O)(=O)c3ccccc3C#N)CC2)c(C)o1	.	.	-10.8%	-3.5%	.	-12.4%	4.0%	?
COc1ccc(Cl)cc1S(=O)(=O)NC(C)C(=O)NCc1ccc2c(c1)OCO2 (stereo not given)	.	-7.3%	-1.9%[46.1 µM]	41.3%[activator]	.	-3.0%	0.6%	?
COc1cccc(Cn2c(CNS(=O)(=O)c3ccc(C(C)(C)C)cc3)nc3cccnc32)c1	-28.0%	.	.	29.7%	-4.3%	.	.	-2.8%[46.1 µM]
COc1ccccc1Nc1nc(N)nc(CN2CCCCC2)n1	.	.	-0.5%	-12.7%	.	2.7%	3.0%	-1.1%
CC(=O)NCC(=O)NC1CCCc2c1cnn2-c1ccccc1F (stereo not given)	.	8.8%	.	-16.7%	.	-3.3%	2.4%	.
CCN1C(=O)c2ccccc2S(=O)(=O)c2ccc(C(=O)NCc3ccccc3Cl)cc21	-14.6%	.	?	-5.6%	-0.8%	.	.	-28.3%[46.1 µM]
CCCCNC(=O)C1CCN(c2nc(OC)nc(OC)n2)CC1	6.7%	-0.1%	20.8%	8.5%	2.7%	5.9%	0.7%	7.4%
Cc1ccc(C(=O)NCC(=O)NCCSc2ccc(Br)cc2)cc1	.	.	-5.1%	11.1%	.	-5.2%	-6.5%	7.5%[46.1 µM]
COCCCNc1nc2c(c(=O)n(Cc3ccc(F)cc3)c(=O)n2C)n1C	11.2%	8.2%	2.3%[46.1 µM]	?	?	-9.8%	1.0%	16.9%[46.1 µM]
Cc1ccc(CNC(=O)CCS(=O)(=O)c2cccc3nsnc23)cc1	-6.6%	-0.4%	19.7%	-8.6%	1.8%	-1.2%	1.7%	1.0%
C=C(C)Cn1c(C)cc(C)c(S(=O)(=O)c2ccccc2C)c1=O	-5.5%	1.5%	-14.1%	6.7%	-3.4%	13.3%	-6.2%	7.9%
CC(NC(=O)COc1cccc(Br)c1)C(=O)O (stereo not given)	-1.6%	3.3%	11.1%	-20.0%	-1.4%	-23.3%	-0.1%	6.1%
Cc1ccc(CN2CCN(Cc3cn(C)nc3-c3ccccc3)CC2CCO)o1 (stereo not given)	.	-0.3%	3.0%[46.1 µM]	-3.3%	.	2.0%	0.3%	28.0%[46.1 µM]
Cc1ccsc1/C=N/NC(=O)c1ccc(Cn2cc(Br)cn2)o1	-19.4%	-0.7%	-7.3%	-12.1%	-4.7%	-8.1%	2.6%	?
C/C(O)=C\c1nc2ccccc2oc1=O	-6.6%	-87.4%	9.9%	16.5%	-3.7%	?	-12.8%	0.0%
O=C(CSc1ccc(-c2cccc([N+](=O)[O-])c2)nn1)NC1CCCC1	.	.	21.5%[46.1 µM]	-9.6%	.	10.5%	0.9%	0.4%
COc1ccc(C(C(=O)NCc2ccccc2)N(C(=O)c2snc(C(N)=O)c2N)c2ccccc2OC)cc1 (stereo not given)	.	-3.5%	?	-6.7%	.	86.4%	3.2%	?
CC(=O)Oc1ccc(C(=O)Nc2ccccc2C(=O)N2CCCCC2)cc1	.	3.1%	-2.1%[46.1 µM]	-12.3%	.	-17.3%	0.1%	14.7%[46.1 µM]
COc1ccccc1C1CC(c2ccc(Cl)cc2)Nc2nc(N)nn21 (stereo not given)	-1.4%	16.9%	-16.9%	-19.4%	-0.3%	10.5%	-2.7%	-8.7%
Cc1c(NS(=O)(=O)c2cccc(C(=O)NCc3ccccc3)c2)c(=O)n(-c2ccccc2)n1C	15.3%	-5.3%	0.6%	2.5%	3.7%	5.1%	5.0%	1.5%
CCOC(=O)C1CCN(C(=S)NC(=O)c2cccs2)CC1	.	0.2%	5.7%[46.1 µM]	19.1%	.	-2.1%	-1.2%	.
CCCN(CC(=O)Nc1ccccc1C)C(=O)c1ccc(N2CCOCC2)c([N+](=O)[O-])c1	.	.	-5.7%	-10.5%	.	-12.5%	5.1%	-16.3%
O=C(O)CCn1cnc2onc(-c3cc(F)cc(F)c3)c2c1=O	1.3%	.	-4.6%[46.1 µM]	18.5%	-0.9%	.	.	0.4%[46.1 µM]
